Screening data as filed in PubChem.
T cruzi inh: blocks replication of Trypanosoma cruzi; T. cruzi beta-gal in NIH3T3, luminescence, 90 h; inhibition, % (concentration not given with the values); 1.4% of 300,000 active; AID 1885;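 active = mean inhibition across valid replicates above about 55%, limit read from the data; inconclusive = mean below that limit but half or more replicates reach it; inactive = mean below it, under half of replicates reach it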;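 also: signal also drops with host cell toxicity which is not excluded here; 0% = plate median of DMSO wells and 100% = zero luminescence signal; higher percent means less beta-gal luminescence so fewer parasites; stock transfer was 50 nL into about 50 µL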
Ecoli rRNA inh: inhibits bacterial ribosomal RNA function over humanized ribosomes | 1.6% of 350,000 active | GFP signal change (wild-type ribosome), % (no concentration beside the values) | AID 720706 | E. coli WT GFP vs humanized-ribosome RFP mutants, fluorescence, 24 h; stronger effect = lower value; DMSO median 0, no signal -100;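 active = significant combined selectivity score with lowered wild-type GFP, culture density cut under 30%, mutant RFP and density less affected; inactive = any of these conditions unmet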; also: one replicate is shown; some compounds called inactive have numbers as strong as hits
MLL AF4-AF9 inh: inhibitors of human MLL-AF4/AF9 interaction; AlphaScreen, biotin-AF4 peptide binding to FLAG-AF9; inhibition, % at 10 µM; 0.47% of 350,000 active;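 active = every replicate reaching a set inhibition limit, whatever the replicate mean, cut at about 25% in these data; inconclusive = mean inhibition reaches that limit but some replicates miss it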;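 also: 0% = plate neutral control median and 100% = total signal loss; the record names both 10 and 1 µM as test concentration; the first replicate is given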
Target sequence (P42568 whole entry, looked up): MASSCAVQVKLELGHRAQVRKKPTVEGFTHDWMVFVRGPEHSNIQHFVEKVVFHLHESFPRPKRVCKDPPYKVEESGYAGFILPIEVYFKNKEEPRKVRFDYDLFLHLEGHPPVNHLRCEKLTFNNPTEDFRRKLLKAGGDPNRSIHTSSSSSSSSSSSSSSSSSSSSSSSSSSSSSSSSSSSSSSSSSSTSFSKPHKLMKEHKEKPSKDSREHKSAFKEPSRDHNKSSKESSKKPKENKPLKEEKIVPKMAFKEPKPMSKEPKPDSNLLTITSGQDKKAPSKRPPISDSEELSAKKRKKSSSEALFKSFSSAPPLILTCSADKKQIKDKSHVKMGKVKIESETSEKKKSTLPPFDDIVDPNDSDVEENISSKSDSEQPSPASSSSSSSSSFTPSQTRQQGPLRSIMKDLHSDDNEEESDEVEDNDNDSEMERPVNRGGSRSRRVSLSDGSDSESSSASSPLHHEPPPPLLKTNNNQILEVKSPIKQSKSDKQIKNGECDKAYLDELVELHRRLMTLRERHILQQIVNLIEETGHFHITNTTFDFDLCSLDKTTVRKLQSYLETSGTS
ALR H2O2 inh: human ALR oxidase inhibition via reduced H2O2; P55789; purified ALR, DTT oxidation, H2O2 HRP-luminol luminescence; inhibition, % (concentration not given with the values); 3.8% of 290,000 active; AID 485317;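 active = mean and each replicate at 75% or more; inconclusive = only one of the two met; inactive = neither met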;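 also: stock transfer was 7.5 nL into about 7.5 µL; 0% = neutral wells and 100% = wells with inactivated enzyme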
Target sequence (P55789 whole entry, looked up): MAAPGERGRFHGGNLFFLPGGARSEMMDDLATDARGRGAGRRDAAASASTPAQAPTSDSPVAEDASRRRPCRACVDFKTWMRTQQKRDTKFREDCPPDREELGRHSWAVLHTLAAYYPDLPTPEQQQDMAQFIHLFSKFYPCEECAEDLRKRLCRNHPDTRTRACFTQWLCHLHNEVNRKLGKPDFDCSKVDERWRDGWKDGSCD
Beta apoptosis: blocks beta cell apoptosis | INS-1E cytokine-induced death, ATP luminescence, 48 h; percent of positive-control rescue, neutral wells zero | 0.8% of 300,000 active | protection from apoptosis, % (no concentration beside the values);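 active = all replicates at 75% or more, or half of them and the mean; inconclusive = half reach 75% but not the mean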;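 also: 0% = cytokine-treated negative control wells and 100% = positive control rescue; higher means more ATP so stronger rescue from cytokine killing; wells of about 40 µL received 100 nL stock; the first replicate is given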
FGF22 binding: FGF22 (human) thermal shift binding | recombinant FGF22 thermal shift, SYPRO orange fluorescence; percent of sucrose octasulfate shift, DMSO zero | calls only at 9.99 µM | 1.5% of 340,000 active | AID 651658;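 active = melting point raised past a set limit in the mean and every replicate; inconclusive = no clear call; three in four hits are not shown here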
Target sequence (Q9HCT0 whole entry, looked up): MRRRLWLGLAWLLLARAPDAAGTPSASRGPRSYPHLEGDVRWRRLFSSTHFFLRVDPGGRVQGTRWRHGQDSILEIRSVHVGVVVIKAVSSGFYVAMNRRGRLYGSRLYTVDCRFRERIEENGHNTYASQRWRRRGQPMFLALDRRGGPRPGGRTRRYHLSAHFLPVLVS
Calb FLC: affects C. albicans growth with fluconazole; 0.57% of 300,000 active; growth inhibition, % (test concentration not listed); C. albicans CaCi-2 (fluconazole-resistant clinical isolate) + fluconazole, Alamar Blue growth, 48 h; AID 1979;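 active = most replicates above 75%; inconclusive = exactly half above 75%; inactive = most below 75%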;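 also: all wells also contain fluconazole at 8 µg/ml as a sub-toxic cotreatment; 0% = median of DMSO wells and 100% = median of geldanamycin control wells; wells of about 8 µL received 7.5 nL stock; the first replicate is given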
RanGTP-Imp inh: disruptors of Ran-importin-beta complex formation – biochemical, FRET, CFP-Ran, YFP-importin-beta, homogeneous, primary screen | cell-free CFP-Ran/YFP-importin-beta FRET ratio | 1.1% of 300,000 active | inhibition, % (no concentration beside the values);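 active = most replicates above 15%; inconclusive = exactly half above 15%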;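 also: 0% = DMSO wells and 100% = Ran loaded with GDP instead of GTP; wells of about 40 µL received 100 nL stock; the first replicate is given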
Ecoli rRNA inh OD600: further read-out of Ecoli rRNA inh, marked with its call; OD600 change, %; measured here: OD600 growth;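 optical density of the mix in the first replicate; 0 = DMSO median and -100 = no signal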
Ecoli rRNA inh RFP: also measured in Ecoli rRNA inh; calls as there; RFP signal change, %; measured here: RFP humanized mutant strains;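 first replicate; 0 = DMSO median and -100 = no signal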
* marks the source's active call; other numbers are inactive results; i = inactive; u = inconclusive; x = no result given.

SMILES	T cruzi inh	Ecoli rRNA inh	Ecoli rRNA inh OD600	Ecoli rRNA inh RFP	MLL AF4-AF9 inh	ALR H2O2 inh	Beta apoptosis	FGF22 binding	Calb FLC	RanGTP-Imp inh
CNC(=O)c1ccc2c(c1)nnn2C	-7	x	x	x	x	-4	-6	x	106*	-6.1
Cc1ccc(C(=O)/C=C2/NC(=O)CS2)cc1	-11	x	x	x	x	x	5	x	5	0.2
CCCS(=O)(=O)n1nc(-c2ccc(OC)cc2)cc1N	-3	1	-1	-2.4	9.5	1	-7	i	-3	4.8
Cc1ccc2[nH]c(CN3CCN(C)C(CCO)C3)c(C)c2c1 (stereo not drawn)	2	2	9	0.7	-6.3	39	x	i	-3	10
COc1ccc(C(=O)NC2CC3CCCC(C2)N3Cc2ccccc2)c(OC)c1 (stereo not drawn)	38	1	0	-1.1	0.4	-12	2	i	-11	1.6
O=C(Nc1ccc(O)c2c(=O)cc(-c3ccccc3Cl)oc12)c1cccc(Cl)c1	3	6	14	6.3	-2.0	x	-6	i	-11	0.1
O=C(Cc1cccc2ccccc12)N/N=C/c1ccc(O)c([N+](=O)[O-])c1	11	-3	-6	3.7	0.5	-4	7	x	-12	8.0
COC(=O)c1sc(S(=O)(=O)N2CCCCC2C)c(C(=O)OC)c1C (stereo not drawn)	x	x	x	x	-1.0	2	-7	i	x	x
CN(C)c1ccc(NC2=C([N+](=O)[O-])CS(=O)(=O)C2)cc1	16	x	x	x	x	99*	-9	x	1	-6.1
COc1ccc(N(CC(=O)O)S(=O)(=O)c2ccc(OC)c(OC)c2)cc1	-15	x	x	x	x	x	-6	x	2	3.9
CN(C(=O)Cn1nnc(-c2ccc(F)cc2)n1)C1CCS(=O)(=O)C1 (stereo not drawn)	x	x	x	x	0.1	-4	0	i	x	x
O=c1[nH]cnc2ccccc12	3	11	6	-3.8	0.4	-7	0	i	1	-0.2
CCOCC(=O)N1CCN(c2ccccc2OC)CC1	-11	2	16	0.2	-1.0	33	x	x	1	-0.6
Cc1ccc(C)c(Cn2c(=O)n(C)c(=O)c3sccc32)c1	5	3	4	-3.0	3.9	-13	-7	i	-13	0.1
CC1(C)Cc2cccc(OCC(=O)N3CCN(c4cccc(Cl)c4)CC3)c2O1	13	-37	-65	-1.0	1.4	x	x	i	0	2.0
C=C[C@@H]1c2ccccc2N(S(=O)(=O)c2ccc(C)cc2)[C@H](c2ccccc2C(F)(F)F)C1(C#N)C#N	x	6	-4	1.3	-2.2	2	24	i	x	x
CCOc1ccc(/C=N/NC(=O)CNC(=O)c2ccc(S(=O)(=O)N3CCOCC3)cc2)cc1	-9	13	9	0.2	-2.1	-8	1	i	7	1.1
CCOc1ccc(NC(=O)CN(C)C(=O)c2ccc(N3CCOCC3)c([N+](=O)[O-])c2)cc1OCC	-10	10	14	-2.7	1.1	-21	-9	i	-3	1.3
CCN1C(=O)/C(=C\N2CCCCCC2)SC1=S	7	x	x	x	x	-2	5	x	-22	3.9
Oc1csc(Cc2nc(-c3ccc4ccccc4c3)cs2)n1	20	x	x	x	x	-10	1	x	-13	-0.9
C=CCNC(=S)/N=c1\sccn1C	-21	x	x	x	x	1	-22	x	6	3.4
CC(C)(C)NC(=O)c1cc(F)c(F)cc1Cl	-2	x	x	x	x	1	1	x	0	-4.5
COc1ccc(/C(C)=N/NS(=O)(=O)c2cc(C)ccc2C)c(OC)c1	-1	7	-1	-1.6	0.9	-4	x	i	-1	-3.3
COCCNCc1nc2sc(C)c(-c3ccccc3)c2c(=O)[nH]1	-13	-5	-16	4.5	-14	x	2	i	13	1.1
O=C(/C=C/c1ccccc1)Nc1cc(S(=O)(=O)N2CCOCC2)ccc1N1CCCC1	6	x	x	x	x	-16	-5	x	-8	5.2
Remaining list, next part:
SMILES	T cruzi inh	Ecoli rRNA inh	Ecoli rRNA inh OD600	Ecoli rRNA inh RFP	MLL AF4-AF9 inh	ALR H2O2 inh	Beta apoptosis	FGF22 binding	Calb FLC	RanGTP-Imp inh
CCCN1CCOC(CC(=O)Nc2ccc([N+](=O)[O-])cc2)C1=O (stereo not drawn)	-4	8	9	1.3	0.2	4	-2	i	-9	1.5
Cc1c(NC(=O)CSc2cccc3cccnc23)c(=O)n(-c2ccccc2)n1C	68*	x	x	x	x	2	7	x	-17	5.4
CC1(C)CC(=O)C2=C(C1)Nc1ccccc1NC2	-24	-2	-10	56	3.2	x	0	i	-35	-10.0
CN1CCCCC1CCN1c2ccccc2Sc2ccc(S(C)=O)cc21 (stereo not drawn)	12	x	x	x	5.1	x	-12	i	-15	-4.7
CCOc1ccc(OCc2cccc(C(=O)N3CCCCCC3)c2)cc1	-3	-38	-44	-5.4	-0.3	x	-2	i	u	1.1
CCCc1[nH]nc2c1C(c1ccc(OC)cc1OC)C(C#N)=C(N)O2 (stereo not drawn)	-5	x	x	x	x	u	x	x	8	-0.4
CCOC(=O)C1CCCN(C(=S)NC2CCCCC2)C1 (stereo not drawn)	9	12	5	-1.5	1.9	7	-3	i	-16	-1.4
Cc1ccc(CNCC(=O)Nc2cccc(S(=O)(=O)NC3=NCCCCC3)c2)cc1	-3	1	-4	-2.9	-0.4	-3	-6	i	19	1.1
CC(=O)c1ccc(N2CCN(C(=O)C(=O)c3cn(CC(=O)N4CCCCCC4)c4ccccc34)CC2)cc1	18	3	9	10	-0.2	-8	12	i	-3	-1.5
O=C(NNC(=O)c1ccc(Cn2cccn2)o1)NC12CC3CC(CC(C3)C1)C2	-5	-4	-7	2.0	0.1	30	1	i	-4	0.0
CC(C)CC1=NN(C(=O)c2cccnc2)C(O)(C(F)(F)F)C1 (stereo not drawn)	-13	x	x	x	x	x	-2	x	-8	-4.0
O=C(COC(=O)CNC(=O)c1ccccc1)Nc1ccc2c(c1)OCO2	-20	13	13	-4.1	-3.4	-25	-3	x	-4	3.8
O=S(=O)(c1ccc(S(=O)(=O)n2cnc3ccccc32)cc1)N1CCCCCC1	-12	x	x	x	x	-4	-6	x	17	4.4
CCC(C)NC(=O)COC(=O)c1cccnc1Nc1ccccc1F (stereo not drawn)	-6	x	x	x	x	2	x	x	-3	0.3
Cn1c2c(c(=O)n(C)c1=O)C(NC(=O)C(C)(C)C)(C(F)(F)F)C(=O)N2 (stereo not drawn)	-13	x	x	x	x	2	-4	x	-8	3.5
C(=N\c1nc2ccccc2n1CCN1CCOCC1)/c1cccs1	1	x	x	x	x	-9	-1	x	2	0.8
COc1ccc(OCCNS(=O)(=O)c2ccc3oc4ccccc4c3c2)cc1	-8	x	x	x	x	-1	3	x	-1	1.2
CCCCn1c(N)c(N(CC(C)C)C(=O)CSCc2ccc(Cl)c(Cl)c2)c(=O)[nH]c1=O	3	2	6	-0.6	-1.1	x	-2	i	-10	0.6
COc1ccc(Cl)cc1NC(=O)c1noc2c1CCCC2	18	6	1	-6.6	-49	-7	-3	i	-33	2.8
CC1(C)CC(=O)C2=C(C1)NC(=O)NC2c1ccccc1 (stereo not drawn)	-3	17	1	1.5	-0.5	x	-7	i	0	-1.8
CCOC(=O)/C(=C/c1ccco1)NC(=O)c1ccc(Br)o1	4	19	-1	5.3	-1.1	5	-4	i	25	-0.5
CCN(CC)c1ccc(C=C2C(=O)OC3(CCCC3)OC2=O)cc1	-47	x	x	x	x	49	-5	x	-1	0.8
CCOC(=O)C1=C(C)NC(=O)NC1c1ccc2c(c1)OCO2 (stereo not drawn)	1	x	x	x	x	-2	0	x	3	-3.7
CC(Oc1ccc(F)cc1)C(=O)Nc1nc(-c2ccccn2)cs1 (stereo not drawn)	51	-57	-77	-21	1.1	-4	20	i	0	-2.0
O=C(COc1ccccc1[N+](=O)[O-])N/N=C/c1ccccn1	-6	13	6	-1.5	0.9	3	-5	i	10	-3.1
(next part)
SMILES	T cruzi inh	Ecoli rRNA inh	Ecoli rRNA inh OD600	Ecoli rRNA inh RFP	MLL AF4-AF9 inh	ALR H2O2 inh	Beta apoptosis	FGF22 binding	Calb FLC	RanGTP-Imp inh
S=C(Nc1ccc(Oc2ccccc2)cc1)NC1CCCCCC1	11	x	x	x	x	18	6	x	-9	3.2
Cc1cc(C)cc(NC(=O)C2CC(=O)n3ncnc3N2)c1 (stereo not drawn)	19	10	13	3.9	1.9	-6	0	i	-10	0.8
Nn1c(Cc2cccc3ccccc23)nnc1SCc1ccc(Cl)c(Cl)c1	8	-47	-66	-16	4.1	14	-6	i	-13	0.5
CNC(=O)Cn1ncc2c(C)n(Cc3ccc(C)cc3)c(C)c2c1=O	-1	x	x	x	x	-4	2	x	1	0.4
COc1ccccc1N(C)S(=O)(=O)c1ccc(C(=O)OCC(=O)NCc2ccco2)cc1	-7	x	x	x	x	2	-16	x	-14	4.4
COc1cc2c(cc1OC)/C(=C/C(=O)c1ccc(NC(C)=O)cc1)NCC2	-7	-9	-8	2.5	-0.3	15	9	i	8	-3.8
O=C(Nc1nccs1)c1ccc(N2C(=O)C3CCCCC3C2=O)cc1 (stereo not drawn)	x	12	10	5.4	0.5	-2	-9	i	-2	x
CC(C)(C)c1cc(CN(CCO)CCO)cc(C(C)(C)C)c1O	4	x	x	x	x	3	-2	x	-5	-2.0
CCc1ccc(Nc2ccc(C(=O)O)cc2[N+](=O)[O-])cc1	8	-10	0	-9.3	-1.3	8	-2	i	-3	-1.8
O=C(c1cc2c(s1)CCCC2)N1CCN(C(=O)C2CCCO2)CC1 (stereo not drawn)	-5	x	x	x	x	-23	4	x	31	1.8
COc1cccc(NS(=O)(=O)c2csc(C(N)=O)c2)c1	1	15	12	-0.2	3.1	-5	4	i	2	-1.1
O=c1c(-c2n[nH]c(=S)n2-c2ccccc2)cccn1Cc1cccc(Cl)c1	5	-6	6	-0.4	-9.5	93*	0	i	2	-1.0
C#Cc1ccc([C@@H]2C=C(C(=O)N3CCN(Cc4ccccc4)CC3)O[C@H](OCCCCO)C2)cc1	52	x	x	x	x	-5	124*	x	-27	2.1
O=S(=O)(NCCc1cn2ccccc2n1)c1ccc(-c2ccccc2)cc1	-5	-6	-21	-0.6	1.3	0	4	i	-4	-1.8
Cc1cccc(NC(=O)c2ccc(COc3ccccc3[N+](=O)[O-])o2)n1	6	-11	-20	3.4	-0.6	-2	-5	i	3	1.2
COc1ccccc1CNC(=O)COC(=O)c1ccccn1	-7	3	1	-0.4	u	-6	-1	i	0	2.1
COc1ccccc1N(C(=O)CN1C(=O)c2ccccc2S1(=O)=O)C(C(=O)NCC1CCCO1)c1ccc(F)cc1 (stereo not drawn)	0	-3	0	6.6	4.4	-2	-5	i	u	1.2
O=C1CC(c2cccs2)Cc2nc(NC(=O)C3CC3)ncc21 (stereo not drawn)	-1	10	4	2.6	-2.0	-6	-6	i	0	6.8
COc1ccc(OC)c(Nc2cc(C)nc3ccccc23)c1	16	x	x	x	x	5	3	x	12	-1.2
COc1ccccc1NC(=O)c1ccc(NC(=O)CSc2nc(N)cc(=O)[nH]2)cc1	x	x	x	x	-2.7	-3	6	i	x	x
Cc1ccc2nsnc2c1N	0	0	8	0.1	-1.5	-24	-18	i	1	-1.6

A portion of the library (hit frequency here may not be typical).
